HPGD block = HPGD (human) dehydrogenase inhibition; 150,000 tested, 4.3% active; AID 894; P15428; Potency, µM, for inactives: at the highest dose activity change, negative = inhibition, usual class: inhibitors; purified HPGD, NADH fluorescence kinetic, PGE2 substrate; active = well fitted inhibition curve with a large enough effect (not every such curve was filed as active); inconclusive = small, poorly fitted or top-dose-only effect, or another doubt; inactive = no such curve, though single readings can be large or run the other way;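 further: top concentration of the series not given in the record; plate controls included wells without enzyme; inactives centre near -10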
Target sequence (P15428 whole entry, looked up): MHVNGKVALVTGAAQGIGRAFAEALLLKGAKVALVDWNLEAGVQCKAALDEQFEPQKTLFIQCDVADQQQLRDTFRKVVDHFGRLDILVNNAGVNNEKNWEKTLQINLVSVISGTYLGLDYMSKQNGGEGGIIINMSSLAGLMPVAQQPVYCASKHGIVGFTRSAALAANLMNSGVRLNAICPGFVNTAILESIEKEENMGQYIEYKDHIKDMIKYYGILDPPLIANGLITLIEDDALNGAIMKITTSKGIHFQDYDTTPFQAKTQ
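20 nM HPGD preincubated 15 min at room temperature with compound in 50 mM Tris-HCl pH 8, 0.01% Tween 20. Started with 1 mM NAD+ and 30 uM prostaglandin E2; NADH fluorescence (360/450 nm) read 5 times over 30-s intervals, last minus first.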
The depositor's hits bear a star; & = joins results of further samples. On the % scale 0 is the no-effect control and ±100 the full control effect; potency means the concentration at half of the fitted maximal effect. Only part of the results is shown, so the mix of outcomes need not match the whole.

For CC(C)C(c1nnnn1Cc1cccs1)N1CCN(C2CCCC2)CC1 (centres undefined) the results were HPGD block -11.9%.
COc1cc(NC(=O)COC(=O)c2ccc(S(=O)(=O)N3CC(C)CC(C)C3)cc2)c(C)cc1[N+](=O)[O-] (centres undefined) was read as HPGD block inconclusive.
Cc1ccc(=O)n(C(C(=O)NCc2ccco2)C(=O)c2ccc(F)cc2)c1 (centres undefined) was read as HPGD block -7.7%.
`CNC(C)c1cc(OC)ccc1OC` (centres undefined) gave HPGD block -1.9%.
Screening O=c1c2ccccc2nc(SCc2ccc([N+](=O)[O-])cc2)n1-c1ccccc1 returned HPGD block -6.0%.
Screening CCC(=O)NC(Nc1cccc(C)n1)(C(F)(F)F)C(F)(F)F returned HPGD block -13.9%.
Screening O=C(NC(Nc1cc(C(F)(F)F)ccc1Cl)C(=O)c1ccccc1)c1ccccc1 (centres undefined) returned HPGD block -19.4%.
Screening CCCNS(=O)(=O)c1ccc(OCC(=O)OC)cc1 returned HPGD block -8.0%.
Screening N#C/C(=C(/O)COc1cccc2ccccc12)c1nc2ccccc2[nH]1 returned HPGD block 0.4%.
For CC(NC(=O)C1CCCCC1)C(=O)NC1=NCCS1 (centres undefined) the results were HPGD block -13.6%.
`Cc1ccc(CNC(=O)CCc2c(C)nc3ncnn3c2C)cc1` gave HPGD block -6.4%.
CCOC(=O)c1cnc(-n2nc(C)cc2C)nc1NC(C)c1ccccc1 (centres undefined) was read as HPGD block -6.4%.
Cc1ccc(C(=O)Nc2ncc(Cc3ccc(SC(F)F)cc3)s2)cc1 was read as HPGD block -5.6%.
CCn1c(SCC(=O)NCc2ccc(F)cc2)nc2c(c1=O)SC(C)C2 (centres undefined) was read as HPGD block -16.6%.
Screening CCN1C(=O)CC(C(=O)O)SC1=Nc1ccc(OC)cc1 (centres undefined) returned HPGD block -2.2%.

Ordered by molecular weight (smallest number first): 7 of the compounds above.
`CNC(C)c1cc(OC)ccc1OC` (centres undefined) gave HPGD block -1.9%.
For CC(NC(=O)C1CCCCC1)C(=O)NC1=NCCS1 (centres undefined) the results were HPGD block -13.6%.
Screening CCCNS(=O)(=O)c1ccc(OCC(=O)OC)cc1 returned HPGD block -8.0%.
Screening N#C/C(=C(/O)COc1cccc2ccccc12)c1nc2ccccc2[nH]1 returned HPGD block 0.4%.
CCOC(=O)c1cnc(-n2nc(C)cc2C)nc1NC(C)c1ccccc1 (centres undefined) was read as HPGD block -6.4%.
Cc1ccc(=O)n(C(C(=O)NCc2ccco2)C(=O)c2ccc(F)cc2)c1 (centres undefined) was read as HPGD block -7.7%.
For CC(C)C(c1nnnn1Cc1cccs1)N1CCN(C2CCCC2)CC1 (centres undefined) the results were HPGD block -11.9%.

The listing continues:
COCCn1c(=NC(=O)CSCC(=O)NC2CCCCC2)sc2cc(OC)ccc21 was read as HPGD block inconclusive.
Screening Cc1ccc(CCNC(=O)CN(C)S(=O)(=O)c2ccc3c(c2)c(=O)n(C)c(=O)n3C)cc1 returned HPGD block -15.1%.
Screening Cc1ccc(NC(=O)/C=C\C(=O)NCC(=O)O)cc1C returned HPGD block -18.5%.
`CCc1cccc(C)c1NC(=O)CN(C)Cc1cccc(F)c1` gave HPGD block -4.7%.
For CCOC(=O)c1c(C)n(C(=O)c2ccco2)c(=O)n1C(=O)c1ccco1 the results were HPGD block 22.4µM*.
Screening O[C@]1(c2ccccc2)c2ccccc2NC2=NCCN21 returned HPGD block 1.5%.
`O=C(CN1C(=O)CSc2ncccc21)N1CCOCC1` gave HPGD block -3.6%.
Screening CNc1ccccc1C(C)(C)c1cc(-c2ccco2)n[nH]1 returned HPGD block -4.1%.
Screening CCCC(=O)NC(c1ccc(N(C)C)cc1)c1c(O)ccc2ccccc12 (centres undefined) returned HPGD block inconclusive.
For CCOc1ccc2c(c1)c(C(C)=O)c(C)n2-c1ccccc1 the results were HPGD block -25.4%.
`CC(=O)OCc1nc2sc3c(c2c(=O)[nH]1)CCCC3` gave HPGD block -3.2%.
`CC(=O)N1N=C(c2ccc(Br)cc2)CC1c1cn(C)c2ccccc12` (centres undefined) gave HPGD block -13.0%.
For C=CCN(c1ccccc1)S(=O)(=O)c1ccc2c(c1)oc(=O)n2C the results were HPGD block -9.6%.
`CCOc1ccc(-c2nnn(CC(=O)NCc3ccco3)n2)cc1` gave HPGD block -10.6%.
Screening CCc1nnc(NC(=O)CSc2nnc(COc3cccc(C)c3)o2)s1 returned HPGD block -25.4%.

Of the compounds above, six have four or more nitrogen atoms.
For CC(C)C(c1nnnn1Cc1cccs1)N1CCN(C2CCCC2)CC1 (centres undefined) the results were HPGD block -11.9%.
`Cc1ccc(CNC(=O)CCc2c(C)nc3ncnn3c2C)cc1` gave HPGD block -6.4%.
CCOC(=O)c1cnc(-n2nc(C)cc2C)nc1NC(C)c1ccccc1 (centres undefined) was read as HPGD block -6.4%.
Screening Cc1ccc(CCNC(=O)CN(C)S(=O)(=O)c2ccc3c(c2)c(=O)n(C)c(=O)n3C)cc1 returned HPGD block -15.1%.
`CCOc1ccc(-c2nnn(CC(=O)NCc3ccco3)n2)cc1` gave HPGD block -10.6%.
Screening CCc1nnc(NC(=O)CSc2nnc(COc3cccc(C)c3)o2)s1 returned HPGD block -25.4%.

Going on with the list:
For CCSc1nc(N)c2c3c(sc2n1)CN(C)CC3 the results were HPGD block inconclusive.
Screening FC(F)(F)c1ccc(C2[C@H]3CN(Cc4cccnc4)[C@H](c4ccccc4)C34CC2(c2cccnc2)C4)cc1 (some centres undefined) returned HPGD block -11.2%.
For C=CCn1c(SCc2cc(=O)n3cc(C)ccc3n2)nnc1-c1cccc(C)c1 the results were HPGD block -24.7%.
For CN(CCO)c1cc(N2CCN(C(=O)c3ccco3)CC2)c2nonc2c1[N+](=O)[O-] the results were HPGD block -17.5%.
`CC(=O)Nc1cc(C(=O)N2CCCC2)ccc1S(=O)(=O)c1ccc(Cl)cc1` gave HPGD block -8.9%.
`Cc1cc(C(=O)O)cc(S(=O)(=O)N2CCOCC2)c1C` gave HPGD block -2.7%.
Screening Oc1cccc(/C=N/Nc2cc(N3CCCC3)nc(N3CCCC3)n2)c1 returned HPGD block -7.8%.
O=C(c1cccc(COc2cccc3ccccc23)c1)N1CCCC1 was read as HPGD block 20µM*.
Screening O=C(CSc1nnc(-c2ccncc2)o1)Oc1ccccc1 returned HPGD block -14.1%.
For CC(C)(C)N1CC2(c3ccccc3)CN(C(C)(C)C)CC(c3ccccc3)(C1)C2=O the results were HPGD block -11.4%.
`COc1ccc(C(=O)NCCCN2CCCC2=O)cc1` gave HPGD block -12.2%.
For COc1ccccc1N1CCN(C(=O)c2cc3n(n2)C(C(F)(F)F)CC(c2ccco2)N3)CC1 (centres undefined) the results were HPGD block -13.2%.
O=C(NCCSc1c[nH]c2ccccc12)C1CC1 was read as HPGD block -17.4%.
`CC(=O)Nc1nc(SCc2ccc(Cl)cc2Cl)n[nH]1` gave HPGD block 1.3%.
`CCOc1ccc(/C=C2\N=C(c3cccs3)OC2=O)cc1OC` gave HPGD block -6.0%.

2 records drawn at random from those above:
Screening FC(F)(F)c1ccc(C2[C@H]3CN(Cc4cccnc4)[C@H](c4ccccc4)C34CC2(c2cccnc2)C4)cc1 (some centres undefined) returned HPGD block -11.2%.
`Cc1cc(C(=O)O)cc(S(=O)(=O)N2CCOCC2)c1C` gave HPGD block -2.7%.

The results go on:
COC(=O)c1cccc(NC(=O)c2ccc3c(c2)C(=O)N(CC2CCCO2)C3=O)c1 (centres undefined) was read as HPGD block -8.4%.
CCC(C(=O)Nc1ccccc1-c1ccccc1)c1ccccc1 (centres undefined) was read as HPGD block -1.3%.
N[C@H](C(=O)O)[C@@H](O)c1cnc[nH]1 was read as HPGD block -3.6%.
`CCC(C)NC(=O)Cn1c(COc2ccc(Cl)cc2Cl)nc2ccccc21` (centres undefined) gave HPGD block -9.8%.
`Cc1nc(C)c(C(=O)OCC(=O)N2CCN(c3ccccc3)CC2)s1` gave HPGD block -3.8%.
`Cc1cc(NC2CCCCC2)nc(N2CCOCC2)n1` gave HPGD block -13.4%.
Screening COc1cc(OC)c(NS(=O)(=O)c2cc(C(=O)OC(C)C(=O)NC3CC3)c(Cl)cc2Cl)cc1Cl (centres undefined) returned HPGD block -23.1%.
`COc1ccc(C(=O)Nc2nc3ccccc3[nH]2)cc1OC` gave HPGD block -3.0%.
Screening COC(=O)C(C)Sc1nnc(Cc2cc(=O)[nH]c(=O)[nH]2)n1-c1cc(C)ccc1C (centres undefined) returned HPGD block -3.7%.
Screening CN1C[C@H](c2ccccc2)C(O)([C@]2(c3ccccc3)CN(C)C[C@@H](c3ccccc3)C2=O)[C@H](c2ccccc2)C1 (some centres undefined) returned HPGD block -1.6%.
`Cc1cc(C)c(C(N)=O)c(SCC(=O)c2cc(C)c(C)cc2C)n1` gave HPGD block -3.8%.
`Cc1cc2nc(C)n(CCCNC(=O)Nc3ccccc3)c2cc1C` gave HPGD block -4.9%.
`N/C(=N\OC(=O)Cc1ccc(-c2ccccc2)cc1)c1cccc([N+](=O)[O-])c1` gave HPGD block -4.1%.
For CC(=O)N1CCC2(CC1)CN(C(c1ccccc1)c1ccccc1)C2 the results were HPGD block -6.1%.
`COCCn1c(-c2ccccc2)cnc1SCC(=O)Nc1cccc2ccccc12` gave HPGD block -24.1%.
Screening CN=C(N)NCCC[C@H](N)C(=O)O returned HPGD block -10.9%.
Cc1noc(C)c1COC(=O)c1ccc2ccccc2n1 was read as HPGD block -16.9%.
`Cc1cccc(CC(=O)Nc2c3c(nn2-c2cccc(Cl)c2)CS(=O)C3)c1` (centres undefined) gave HPGD block 4.4%.
Screening Cc1cc(CN2CCCCC2)oc1C(=O)O returned HPGD block -10.6%.
Screening COc1c(OC(C)=O)ccc(/C=C/c2ccc3cccc(OC)c3n2)c1[N+](=O)[O-] returned HPGD block inconclusive.
Cc1ccc2nc(NC(=O)CSc3ncnc4c3oc3ccccc34)sc2c1 was read as HPGD block -17.5%.
Cn1c(=NC(=O)CN2C(=O)C3CC=CCC3C2=O)sc2ccccc21 (centres undefined) was read as HPGD block -24.7%.
`COc1cc(C2C(C(=O)N3CCOCC3)=C(C)NC3=C2C(=O)CCC3)ccc1OC(C)=O` (centres undefined) gave HPGD block inconclusive.
Cc1cc(C)c2[nH]c(=S)cc(C)c2c1 was read as HPGD block 2.1%.
For Cc1ccc(NC(=O)OCCN2CCN(Cc3ccccc3)CCC2=O)cc1 the results were HPGD block 2.9%&-6.9%.
For CCCSc1nsc(N)n1 the results were HPGD block inconclusive.
`CC(C)(C)c1ccc(S(=O)(=O)Nc2cccnc2)cc1` gave HPGD block -10.0%.
Screening CSc1ccc(/C=N/n2c(C)cc(C)cc2=O)cc1 returned HPGD block -24.8%.
For C=CCN1C(=O)CS/C1=N/c1nccs1 the results were HPGD block -7.2%.
`Cc1cccc(OCC(=O)NNC(=O)CSc2ncc(C#N)c(N)n2)c1` gave HPGD block -13.9%.
`COC(=O)CSc1cc(C)nc2ccc(OC)cc12` gave HPGD block -15.8%.
`O=C(COC(=O)CSc1cc(Cl)ccc1Cl)NCc1ccc2c(c1)OCO2` gave HPGD block -14.8%.
Screening CC(=O)c1cc(-c2ccccc2)n(CC(=O)NC2CCCC2)c1C returned HPGD block -3.7%.
For COc1cccc(N=C2SC(C(=O)Nc3ccc(F)cc3)CC(=O)N2C)c1 (centres undefined) the results were HPGD block -6.3%.
For CN1CCN(CCP(=O)(c2ccccc2)c2ccccc2)CC1 the results were HPGD block -1.4%.
COCCOC(=O)c1c(C)oc2ccc(OC(=O)c3cccs3)cc12 was read as HPGD block -12.9%.
Screening O=C(NNc1ccc([N+](=O)[O-])cc1)C1CC2CCCC(C1)C2=O (centres undefined) returned HPGD block -16.8%.
For COC(=O)[C@H]1C[C@@H]2CC[C@@H](O)C[C@@H]2N1Cc1c(F)cccc1Cl the results were HPGD block -2.2%.
Screening COc1cccc(/C=N/NC(=O)c2cc3c(OC)c(OC)ccc3[nH]2)c1OC returned HPGD block inconclusive.
For C=C(C)C(=O)N1CC2(CC(c3cccc(NC(=O)c4ccccc4)c3)=NO2)C[C@@H]1C(N)=O (some centres undefined) the results were HPGD block -9.6%.
For CC(=O)c1nn(-c2cccc(Br)c2)cc1C(=O)c1ccccc1 the results were HPGD block -5.2%.
For COC(=O)Nc1ccc(S(=O)(=O)N(CCO)CC(F)(F)C(F)F)cc1 the results were HPGD block -5.9%.
Screening Cc1cc(O)c(NC(=O)c2ccc(Br)o2)cc1C returned HPGD block -15.7%.
For CC(C)(SC(=S)N1CCOCC1)C(=O)O the results were HPGD block -8.8%.
`COC(=O)C1=C(C)N(C)C(=O)/C1=C\c1cccs1` gave HPGD block -4.5%.
`O=C(CNC(=O)c1ccccc1)NCC(=O)OCC(=O)c1ccc(F)cc1` gave HPGD block -1.1%.
O=C(Cn1cc(C(=O)c2ccco2)c2ccccc21)NCc1ccco1 was read as HPGD block -5.1%.
`CCOC(=O)N1CCC(n2c(SCC(=O)N3CCC(C)CC3)nc3ccccc3c2=O)CC1` gave HPGD block -9.2%.
Screening Cn1c(=O)c2c(nc(NCc3ccccc3)n2C)n(C)c1=O returned HPGD block -3.6%.
Screening COc1ccc(CNC(=O)CCCn2c(SCC#N)nc3cc4c(cc3c2=O)OCO4)cc1 returned HPGD block -1.5%.
CN(C)C(=O)COC(=O)[C@H](Cc1ccccc1)NC(=O)c1ccco1 was read as HPGD block -2.0%.
For CCOC(=O)C1=C(C)NC(=O)C(C#N)C1c1ccco1 (centres undefined) the results were HPGD block -12.1%.
`C/C(=N\NC(=O)Cc1c(C)[nH][nH]c1=O)c1ccc2ccccc2c1` gave HPGD block -12.6%.
Screening Nc1ccc(N=Nc2ccc(-c3ccc(O)cc3)cc2)c2ccc(S(=O)(=O)O)cc12 returned HPGD block -7.3%.
For CCOc1ccc(NC(=O)C2CC(=O)N3CCCN=C3S2)cc1 (centres undefined) the results were HPGD block 0.8%.
CC1CCN(C(=O)C2CCN(S(=O)(=O)c3cccc4nonc34)CC2)CC1 was read as HPGD block 15.8µM*.
